Arbovirus anti: antivirals against arbovirus infection, primary screen, cell-based, full library, 10K replicate subset; AID 1251, 2008; arbovirus infection cell-based antiviral screen; inhibition, % at 10 µM; 0.37% of 200,000 active;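 active means inhibition from about 30%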;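 further: bluetongue infection of BSR cells; cell survival read as ATP light after 72 h; 0% = infected wells without compound and 100% = uninfected wells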
Mtb growth: M. tuberculosis H37Rv growth inhibitors, H37Rv strain (AID 1626). 0.95% of 220,000 active. M. tuberculosis H37Rv growth inhibition; higher % means a stronger effect. one-dose inhibition, % at 10 µM; IC50 in µM for titrated hits;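 active means confirmed in a dose series; inconclusive means inhibition above 80% but not taken into the dose series; inactive means below 80% or under 30% at every dose of the series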;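 further: bacteria incubated seven days before Alamar blue readout; 0% = bacteria only wells and 100% = bacteria with antibiotic wells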
Mtb bLac sens: beta-lactam sensitization of Mtb H37Rv, H37Rv; M. tuberculosis H37Rv growth with meropenem, percent inhibition; hits of this screen are not shown here; inhibition, % at 25 µM; 0.27% of 330,000 active;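 active means about 74% or more and at least 40 points above the plate without the antibiotic, then above 30% in a dose series; inconclusive means first-round hits that could not be retested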;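 further: growth measured after seven days incubation then overnight dye step; 0% = bacteria only wells and 100% = bacteria with antibiotic; twin plates without the antibiotic show which effects depend on it; some results filed as inactive read as strong as hits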
YopH PTP inh: YopH tyrosine phosphatase inhibitors, primary screen, biochemical, fluorescence Ex485/Em525. YopH tyrosine phosphatase [Yersinia enterocolitica]. inhibition, %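 (about 10 µM by stock and volumes)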. 0.16% of 140,000 active. AID 898, 2007;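 active means inhibition of 50% or more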;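 further: controls were vehicle for no effect and minimum signal wells for full effect; inactives centre near -20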
RecA intein inh: Mtb RecA intein splicing inhibitors, primary screen, biochemical, fluorescence, HTS. Protein RecA (Mycobacterium tuberculosis (strain ATCC 25618 / H37Rv)), P9WHJ3. cell-free RecA intein splicing. inhibition, %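 (about 9 µM by stock and volumes)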. 0.75% of 290,000 active. AID 2221, 2009; in the data active means inhibition above about 30%; inconclusive means no clear call, values can overlap the other calls;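 further: 0% = vehicle wells and 100% = reference inhibitor control wells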
Target sequence (P9WHJ3 whole entry, looked up): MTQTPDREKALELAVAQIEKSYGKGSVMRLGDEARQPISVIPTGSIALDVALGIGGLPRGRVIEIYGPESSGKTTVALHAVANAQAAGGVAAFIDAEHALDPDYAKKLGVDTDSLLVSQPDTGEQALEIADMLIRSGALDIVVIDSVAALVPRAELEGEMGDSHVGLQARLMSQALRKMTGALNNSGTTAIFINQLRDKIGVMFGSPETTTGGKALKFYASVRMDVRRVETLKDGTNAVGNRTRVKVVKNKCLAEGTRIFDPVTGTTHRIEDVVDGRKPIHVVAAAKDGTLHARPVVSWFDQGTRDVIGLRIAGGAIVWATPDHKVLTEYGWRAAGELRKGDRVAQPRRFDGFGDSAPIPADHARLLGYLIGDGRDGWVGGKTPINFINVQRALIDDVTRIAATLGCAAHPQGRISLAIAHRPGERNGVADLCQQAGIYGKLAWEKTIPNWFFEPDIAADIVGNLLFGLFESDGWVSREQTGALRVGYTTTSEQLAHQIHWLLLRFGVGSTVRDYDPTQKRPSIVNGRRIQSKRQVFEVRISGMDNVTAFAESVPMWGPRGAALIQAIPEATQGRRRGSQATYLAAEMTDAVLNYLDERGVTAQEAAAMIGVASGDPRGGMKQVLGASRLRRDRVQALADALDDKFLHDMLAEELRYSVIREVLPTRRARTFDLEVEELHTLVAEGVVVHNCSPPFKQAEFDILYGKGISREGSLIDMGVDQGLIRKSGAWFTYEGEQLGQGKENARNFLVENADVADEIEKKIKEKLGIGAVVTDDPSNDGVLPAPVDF
Arbovirus anti repeat: recorded beside Arbovirus anti, whose call it bears; inhibition, %; measured here: 10K subset replicate screen; many hits read low in the repeat;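 first of two repeat runs on a subset; 0% = infected and 100% = uninfected wells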
Numbers without * were called inactive; u = inconclusive; x = no result given. Not all compounds are listed; rates above refer to the full screens.

SMILES | Arbovirus anti | Mtb growth | Mtb bLac sens | YopH PTP inh | RecA intein inh | others
FC(F)(F)c1ccncc1-c1nnc(C2CCCCC2)o1 | x | 0% | -9 | x | -2.9
C=CCc1c(C)nc(-c2ccccc2)nc1N/N=C(\C)c1ccccc1 | 5 | -3% | 1 | -42 | 1.8
Cc1csc(=NC(=O)c2ccccc2)n1Cc1ccco1 | -4 | 5% | 4 | -9 | 3.2 | Arbovirus anti repeat=2
Cc1ccc(S(=O)(=O)NC2=NCN(Cc3ccccc3)CN2)cc1 | 5 | -2% | -3 | -6 | -2.2
O=C(CN1CCN(c2ccccc2O)CC1)Nc1cccnc1Cl | -1 | 5% | -1 | x | 1.2
O=C(Cn1nnc(-c2ccc3c(c2)OCO3)n1)Nc1ccccc1C(=O)O | x | x | 7 | x | -0.6
C=CCNC(=S)N/N=C/c1cn(-c2ccccc2)nc1-c1ccc(OC)cc1 | -11 | -10% | 11 | -18 | 0.0
CCNC(=O)c1cccc(S(=O)(=O)N2CCCCCC2)c1 | 2 | 4% | -5 | -32 | 0.5
O=C(C[n+]1cccc2ccccc21)c1ccccc1 | 7 | 7% | -5 | -29 | 0.6
COC(=O)c1sccc1NC(=O)c1cc2c(s1)CCCC2 | 25 | x | 2 | -11 | 1.5
Cc1cc(C)c(NC(=O)COC(=O)Cc2cccs2)c(C)c1 | x | x | 2 | x | 0.3
CCN(CC)CCNC(C(=O)Nc1cc(C(F)(F)F)ccc1Cl)c1ccccc1 (centres undefined) | -20 | -14% | 3 | -38 | -3.1
Cc1nn(Cc2cccc(C(=O)N3N=C(C(F)F)CC3(O)C(F)F)c2)c(C)c1[N+](=O)[O-] (centres undefined) | 25 | 3% | 5 | -22 | -0.3
Fc1cnc(N2CCOCC2)nc1NCc1ccccc1 | 3 | -3% | -7 | -12 | 2.3
CCOc1ccc2nc(SCc3ccc(C(=O)OC)o3)[nH]c2c1 | 7 | -13% | u | -49 | 2.5
CCOC(=O)c1c2ccccc2[n+]([O-])n1[C@@H](C)C(N)=O | x | x | -10 | x | -5.7
CCN(CC)S(=O)(=O)c1cc(Br)c(C)cc1OC | -2 | -2% | 20 | 4 | -7.2
O=S(=O)(c1cccc2nsnc12)N1CCCCC1 | x | x | 2 | x | 1.2
CCn1c(SCC(=O)Nc2cc(C)ccc2C)nnc1-c1cnccn1 | 0 | 2% | 5 | -29 | 2.0
O=C(NCc1cccc(Cl)c1)c1cc(=O)[nH]c2ccccc12 | x | x | -7 | x | 0.2
CC(C)C1Nc2ccc(C(=O)NC3CCCCC3)cc2NC1=O (centres undefined) | x | x | -1 | x | -0.2
Cc1cc(C)cc(-n2cnc3cc(C(=O)O)ccc32)c1 | -9 | -5% | 8 | -3 | -0.9
CSc1nc(-c2ccco2)nn1C(=O)c1ccccc1 | 8 | 4% | -5 | -22 | 8.6
COc1cc(C=O)ccc1OC(=O)N1CCOCC1 | x | x | 1 | x | 1.5
O=C(Nc1ccc2ccccc2c1)c1cn(-c2ccccc2)nc1-c1cccs1 | -8 | 11% | 0 | -113 | 2.3
CC1(C)Cc2cccc(OCC(=O)OCC(=O)Nc3cccc(S(N)(=O)=O)c3)c2O1 | x | -7% | -5 | x | 4.2
CCN(CC)c1ccc(/C=N/NC(=S)NCc2ccc(OC)cc2)cc1 | -34 | 5% | -3 | -11 | 0.6
Cc1ccc(S(=O)(=O)N2CCOCC2)cc1C(=O)Nc1nc2ccccc2[nH]1 | 16 | 5% | 0 | 5 | 6.5
COc1ccc(NC(=O)c2cc([N+](=O)[O-])ccc2O)cc1 | -8 | -16% | -4 | x | 1.7
O=C(NCCCN1CCCC1)[C@H](CSCc1ccccc1)N1Cc2ccccc2C1=O | x | -2% | -7 | x | 1.8
CCOc1ccc(N(CC(=O)NC2CCCCC2C)S(=O)(=O)c2c(C)noc2C)cc1 (centres undefined) | x | x | -4 | x | -2.2
O=c1c2cc(-c3ccccc3)sc2ncn1/N=C/c1ccco1 | 2 | u | 96 | -20 | 3.4 | Arbovirus anti repeat=-2
Cc1[nH]c2ccccc2c1C(=O)CSc1nc2cc(S(=O)(=O)N3CCCCC3)ccc2o1 | 12 | 6% | -10 | -34 | 1.4
COc1ccc(C(C(=O)NCC2CCCO2)N(Cc2cccs2)C(=O)c2snc(C(N)=O)c2N)cc1 (centres undefined) | x | x | -3 | x | -2.6
CCOc1ccc(OCC)c(NC(=O)CN2CCN(c3ccc(C)cc3C)CC2)c1 | 3 | x | -9 | -5 | 1.3
COc1ccccc1NC(=O)COC(=O)c1ccc(S(=O)(=O)NCc2ccco2)cc1 | 4 | 12% | 11 | -16 | -2.7
COc1cc(-c2n[nH]c(=S)n2/N=C/c2cccn2C)cc(OC)c1OC | x | -1% | 2 | x | 3.8
CC(C)N(Cc1nccn1C)C(=O)CC1C(=O)NCCN1Cc1ccccc1C(F)(F)F (centres undefined) | 7 | 3% | -4 | x | -0.8
CCc1ccc(N2CN(CCc3ccccc3)CNC2=S)cc1 | x | 7% | 85 | x | 1.6
COc1ccc(-n2nc(C(=O)NCC(=O)Nc3cccc(C)n3)c3ccccc3c2=O)cc1 | 2 | -13% | 2 | 1 | -28

Sorted by formula weight (high to low): part of the list above.
SMILES | Arbovirus anti | Mtb growth | Mtb bLac sens | YopH PTP inh | RecA intein inh | others
CCOc1ccc(N(CC(=O)NC2CCCCC2C)S(=O)(=O)c2c(C)noc2C)cc1 (centres undefined) | x | x | -4 | x | -2.2
COc1ccc(-n2nc(C(=O)NCC(=O)Nc3cccc(C)n3)c3ccccc3c2=O)cc1 | 2 | -13% | 2 | 1 | -28
CCOc1ccc(OCC)c(NC(=O)CN2CCN(c3ccc(C)cc3C)CC2)c1 | 3 | x | -9 | -5 | 1.3

Next part.
SMILES | Arbovirus anti | Mtb growth | Mtb bLac sens | YopH PTP inh | RecA intein inh | others
O=C(c1ccc(OC2CCN(C/C=C/c3ccccc3)CC2)cc1)N1CCCC1 | x | x | 12 | x | -4.4
Cc1csc(CN(C)C(=O)CC2C(=O)NCCN2Cc2ccc(F)cc2Cl)n1 (centres undefined) | x | x | -2 | x | -5.0
O=C(c1ccc(Cl)cc1)[C@@H]1[C@@H]2C(=O)N(c3ccccc3)C(=O)[C@@H]2C2c3ccccc3C=NN21 (some centres undefined) | 0 | 10% | 0 | -20 | 6.3
Cc1cccc(NC(=S)NC2CCCC2)c1C | x | x | -1 | x | 0.2
Cc1cccc(NS(=O)(=O)c2ccc3[nH]c(=O)cc(C(=O)O)c3c2)c1 | 2 | -1% | -7 | x | 2.0
Cc1onc(-c2ccccc2)c1C(=O)Nc1ccc(Br)cc1Cl | x | x | 3 | x | -3.6
Cc1cc(C)nc(SC2CCCCC2NS(=O)(=O)c2ccccc2)n1 (centres undefined) | -8 | 2% | 3 | -12 | 2.6
C=CCn1c(-c2ccccc2)nc(=S)c2c1CC(C)(C)OC2 | -5 | 0% | -3 | -31 | -0.4
Cc1cccc(-n2c(O)c(C=Nc3ccc(S(N)(=O)=O)cc3)c(=O)[nH]c2=O)c1 | 5 | -1% | -4 | x | -2.3
O=[N+]([O-])c1cnccc1Nc1ccccc1 | -3 | -2% | 3 | 24 | -0.2
CCC(=O)Nc1nnc(SCc2cccc(F)c2)s1 | -18 | 3% | -1 | x | 1.8
Cc1[nH]n(-c2ccccc2)c(=O)c1C=NC1CCCCC1 | 4 | -6% | -9 | x | x
O=C(NNC(=O)c1cccnc1Cl)c1ccc(F)cc1 | x | x | -14 | x | 4.7
CC(C)c1ccc(S(=O)(=O)c2nnn3c2nc(NCC2CCCO2)c2ccccc23)cc1 (centres undefined) | x | x | -6 | x | -0.4
COc1cccc(/C(O)=C2/C(=O)C(=O)N(c3ccccn3)C2c2ccc(OC)c(OC)c2)c1 (centres undefined) | 7 | -1% | 0 | -2 | 3.9
CC1(C)CC(=O)C=C(NCCN2CCN(C(=O)Nc3ccc(Cl)c(Cl)c3)CC2)C1 | 5 | 7% | -1 | -6 | 1.5 | Arbovirus anti repeat=8
CCOc1cc(/C=C2\CCC/C(=C\c3cc(Cl)c(O)c(OCC)c3)C2=O)cc(Cl)c1O | -40 | 14% | 34 | -18 | 2.6
Cc1ccc(C)c(S(=O)(=O)N2CCN(C(C)C(=O)Nc3ccccc3-c3ccccc3)CC2)c1 (centres undefined) | 32* | 10% | 1 | -1 | 9.3
Cc1c(C(=O)N2CC(C)OC(C)C2)oc2ccccc12 (centres undefined) | 0 | -5% | -10 | -29 | -1.6
CC(C)CNS(=O)(=O)c1ccc(CCC(=O)NCc2cccnc2)cc1 | -3 | -2% | 10 | -33 | 0.2

4 entries picked at random from the list so far, as already listed:
SMILES | Arbovirus anti | Mtb growth | Mtb bLac sens | YopH PTP inh | RecA intein inh | others
Cc1cc(C)c(NC(=O)COC(=O)Cc2cccs2)c(C)c1 | x | x | 2 | x | 0.3
CCNC(=O)c1cccc(S(=O)(=O)N2CCCCCC2)c1 | 2 | 4% | -5 | -32 | 0.5
Cc1ccc(C)c(S(=O)(=O)N2CCN(C(C)C(=O)Nc3ccccc3-c3ccccc3)CC2)c1 (centres undefined) | 32* | 10% | 1 | -1 | 9.3
Cc1ccc(S(=O)(=O)NC2=NCN(Cc3ccccc3)CN2)cc1 | 5 | -2% | -3 | -6 | -2.2

Next compounds:
SMILES | Arbovirus anti | Mtb growth | Mtb bLac sens | YopH PTP inh | RecA intein inh | others
CCCCC(=O)Nc1ccc(C(=O)OC2CCCCC2)cc1 | -25 | 23% | 56 | 7 | 0.1
CNC(=O)c1cc2cc(OC)ccc2n1CCN(C)C | 14 | -3% | -3 | -30 | 2.8 | Arbovirus anti repeat=-1
O=c1c(-c2ccccc2)c(O)c2ccccc2n1-c1ccccc1 | x | x | 0 | x | -1.6
O=C(NC1CC2CCC(C1)N2C(=O)NCc1ccccc1)C1CC1 (centres undefined) | 2 | -11% | 5 | -39 | 1.5
COc1ccc(C(CNC(=O)c2cc(S(=O)(=O)NCc3ccccc3)ccc2C)N2CCOCC2)cc1 (centres undefined) | x | x | -14 | x | 0.6
CN(C(=O)Oc1ccc([N+](=O)[O-])cc1)c1ccccc1 | -7 | 8% | 0 | -36 | 4.5
CCOc1cccc(C(=O)Nc2cccc(C(C)=O)c2)c1 | 1 | 5% | 9 | 1 | -2.8
COc1ccccc1/C=N/Nc1nc(C)c(C(C)=O)s1 | x | x | 0 | x | -2.2
Cc1nc(-c2cc(-c3nc(-c4ccc(C(C)(C)C)cc4)no3)no2)cs1 | x | -14% | -5 | x | -1.3
CC(=O)N1CCC(C(=O)Nc2ccc(S(=O)(=O)NCCc3ccccc3)cc2)CC1 | x | x | -4 | x | 2.4
COc1cc(OC)c(/C=N/NC(=O)c2ccc(Cn3nc([N+](=O)[O-])cc3C)cc2)c(OC)c1 | x | -13% | -3 | x | 0.0
Cc1cccc(C)c1NC(=O)CSc1nnc(C)c(=O)[nH]1 | 15 | -10% | 0 | x | -1.0
O=C(Nc1nnc(S(=O)(=O)N2CCCCCC2)s1)c1cccc(Br)c1 | x | x | 10 | x | 8.3
CCCCN(C(=O)C(C)Oc1cccc(Cl)c1)c1c(N)n(CCC)c(=O)[nH]c1=O (centres undefined) | x | x | 0 | x | 1.3
C=CCNC(=O)CN(c1cccc(Br)c1)S(C)(=O)=O | 7 | -2% | -1 | -27 | 1.5
Cc1ccc(C)c(N2CCN(C(c3ccncc3)c3nnnn3Cc3ccccc3)CC2)c1 (centres undefined) | 1 | -7% | -6 | -23 | 10
COc1ccc(C(=O)NCCN2CCOCC2)c(OC)c1 | -3 | -6% | -2 | x | 8.8
Cc1cccn2c(=O)c3cc(C(N)=S)c(=N)n(CCCN4CCOCC4)c3nc12 | -9 | 4% | -3 | x | -119
NC(=O)NC(Cc1ccccc1)C(=O)O (centres undefined) | 2 | -7% | -6 | -35 | -0.3
COc1ccc(NC(=O)C2Cc3cccc(OC)c3O/C2=N\O)cc1 (centres undefined) | x | x | 2 | x | 1.4
O=C(Nc1ccc(O)cc1)c1ccc2c(c1)C(=O)N(Cc1ccccc1)C2=O | x | x | -7 | x | 3.2
Cc1[nH]c2ccccc2c1C1(O)C(=O)N(C(C)C)c2ccccc21 (centres undefined) | -3 | -9% | -2 | -20 | 2.4
O=C(CSc1ccc(C(F)(F)F)cc1[N+](=O)[O-])NCCOc1ccccc1 | 2 | -2% | -9 | -19 | 0.9
CCOc1cc(CNc2ccc(CNc3ncn[nH]3)cc2)ccc1OCc1ccccc1 | -7 | 29% | 0 | -31 | 4.8
Cc1cc(C)n2cc(CSc3nnnn3C)nc2n1 | 6 | 3% | -5 | -8 | -1.4
COc1cccc(C2CC(=O)NC(SC)=C2C#N)c1 (centres undefined) | 1 | 5% | 2 | x | -0.1 | Arbovirus anti repeat=5

Screening results from PubChem BioAssay.
